GIV-Gai inh: inhibitors of GIV peptide binding to Galpha-i3, primary screen, biochemical, fluorescence polarization, FITC-GIV GBA peptide, rat Galphai3. 90 min; hits give low values; scaled: aluminum fluoride 0%, vehicle 100%. Guanine nucleotide-binding protein G(i) subunit alpha-3 (Rattus norvegicus), P08753. 0.42% of 210,000 active. percent of control (FP), % (test concentration not listed);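 active means replicate mean at 85% of control or lower, very high polarization wells dropped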;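 further: wells of about 15 µL received 100 nL stock; the first replicate is given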
Target sequence (P08753 whole entry, looked up): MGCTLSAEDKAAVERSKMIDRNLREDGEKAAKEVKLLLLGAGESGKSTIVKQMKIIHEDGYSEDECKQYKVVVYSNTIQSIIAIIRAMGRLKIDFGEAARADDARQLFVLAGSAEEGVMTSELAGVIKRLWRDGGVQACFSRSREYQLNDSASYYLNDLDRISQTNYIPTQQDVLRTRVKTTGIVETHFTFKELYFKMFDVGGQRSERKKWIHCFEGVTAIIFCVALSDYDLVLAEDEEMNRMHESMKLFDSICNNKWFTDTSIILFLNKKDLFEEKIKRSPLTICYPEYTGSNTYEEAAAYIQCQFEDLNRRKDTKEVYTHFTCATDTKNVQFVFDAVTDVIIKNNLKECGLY
HCMV NEC inh: inhibitors of HCMV UL50-UL53 interaction, biochemical, HTRF | 0.15% of 190,000 active | HCMV UL50-UL53 nuclear egress complex (human cytomegalovirus) | AID 1918969, 2023 | inhibition, % (test concentration not listed) | normalized percent inhibition;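 active means both replicates at 50% or more, plus weaker picks with an unusually low signal ratio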;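 further: stock transfer was 100 nL into about 20 µL; 0% = negative control wells and 100% = wells with untagged competitor protein; inactives centre near -12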
Sa growth 42C: S. aureus growth inhibition at 42 and 30 °C, primary screen, LtaS inhibitor project, RN4220, two temperatures; OD600, 20 h, 42 °C; hits give low values; relative growth, % (test concentration not listed); 0.53% of 170,000 active;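 active means growth at 42 °C up to 50% and 20 or more points under that at 30 °C, or under 10% at both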;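 further: 300 nL library stock went into each well; scaled to the means of positive and negative controls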
Sa growth 42C second temp: also measured in Sa growth 42C; calls as there; relative growth, %; measured here: growth at 30 °C;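 optical density after 20 h as mean of two plates; 100% = untreated growth and lower means inhibition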
An asterisk follows results filed as active; . = no result given; & = joins results of further samples.

1: O=C(NCc1ccccc1C(F)(F)F)C1CCN(c2ncccn2)CC1
2: COc1ccc(N2CCN(C(=O)c3ccccc3I)CC2)cc1
3: CCCCN(C)C(=O)CN1C(=O)c2cccnc2Oc2ccc(C)cc21
4: N#Cc1c2c(c(NCCN3CCCCC3)n3c1nc1ccccc13)CCC2
5: O=C(NCCN1CCOCC1)c1ccc2c(=O)n(Cc3ccc(Cl)cc3)c(=S)[nH]c2c1
6: Cc1ccc(CNC(=O)c2cccc(N3CCCS3(=O)=O)c2)cc1
7: COc1ccc(NC(=O)Cn2c(=O)n(CCCCC(=O)NCCC(C)C)c(=O)c3ccccc32)cc1
8: CC(=O)Nc1ccc(OCC(=O)O)cc1
entry no.	1	2	3	4	5	6	7	8
GIV-Gai inh	102	111	101	104	98	101	102	98
HCMV NEC inh	-2	5	-30	.	-22	.	-15	-15
Sa growth 42C	105	110	80	101	117	89	.	91
Sa growth 42C second temp	97	105	82	89	91	90	.	68

9: O=C(O)c1ccc(NC(=O)C2CC(=O)N(Cc3ccc(Cl)cc3)C(=Nc3ccccc3)S2)cc1 (stereo not given)
10: Cc1ccc(C)c(NC(=O)Cn2cc(C(=O)c3ccncc3)c(=O)c3cc(F)ccc32)c1
11: CNC(=S)Nc1cc(Cl)ccc1OC
12: COC(=O)[C@@H]1CC(=O)O[C@H](C)C/C=C/C=C/[C@H](O)[C@H](C)C[C@H](CC=O)[C@H](OC2O[C@H](C)[C@@H](OC3C[C@@](C)(O)[C@@H](OC(=O)CC(C)C)[C@H](C)O3)[C@H](N(C)C)[C@H]2O)[C@H]1OC (stereo not given in full)
13: C/C(=N\N)c1ccc2ccccc2c1
14: CC(C)c1cc(-c2nc(-c3ccccn3)no2)n[nH]1
15: COc1cc(NS(=O)(=O)c2ccc3c(c2)CC(C)N3C(=O)C2CCC2)cc(OC)c1OC (stereo not given)
16: O=C1C(=O)N(C2CCN(S(=O)(=O)c3ccc4c(c3)CCCC4)CC2)CCN1Cc1ccccc1
entry no.	9	10	11	12	13	14	15	16
GIV-Gai inh	105	108	99	.	.	103	104	96
HCMV NEC inh	-20	.	8	-53	-3	-24	.	-19
Sa growth 42C	.	93	96	-0.6*	74	.	71	.
Sa growth 42C second temp	.	92	89	-0.2*	119	.	99	.

17: O=c1cc(-c2ccccc2)nc2cc(-c3ccccc3)[nH]n12
18: COC(=O)Cc1csc(NC(C)(C)C)n1
19: O=c1cc(-c2ccco2)oc2c1ccc1ccccc12
20: CCOC(=O)C1(CC)CC(C)(c2csc(N)n2)OC1=O (stereo not given)
21: Cc1ccccc1OCc1nnc(SCc2cc(=O)c3ccc(C)c(C)c3[nH]2)n1C
22: COc1ccc(C(=O)Nc2cc(C)nn2-c2ncnc3c2cnn3-c2ccccc2)cc1OC
23: COc1cc(-c2noc(-c3nnn(-c4ccc(Cl)cc4)c3C)n2)cc(OC)c1OC
24: CCN(CC)Cc1c(O)ccc2c(=O)c(-c3ccccc3Cl)coc12
entry no.	17	18	19	20	21	22	23	24
GIV-Gai inh	104&102	.	104	106	101	101	106	105
HCMV NEC inh	-47&-5	-21	.	-9	.	-17	.	-20
Sa growth 42C	99&74	97	118	108	117	.	105	100
Sa growth 42C second temp	88&39	92	98	98	88	.	86	86

Retrieved one by one from above, two records:
22: COc1ccc(C(=O)Nc2cc(C)nn2-c2ncnc3c2cnn3-c2ccccc2)cc1OC
21: Cc1ccccc1OCc1nnc(SCc2cc(=O)c3ccc(C)c(C)c3[nH]2)n1C
entry no.	22	21
GIV-Gai inh	101	101
HCMV NEC inh	-17	.
Sa growth 42C	.	117
Sa growth 42C second temp	.	88

(list continues)
25: COc1ccccc1C(CC(=O)O)c1ccco1 (stereo not given)
26: Cc1ccc(NCC(O)CN)c(Br)c1 (stereo not given)
27: Cc1[nH]c(C(=O)N2CCC(CC(=O)NC3CCCCC3)CC2)c(C)c1C
28: CCc1ccc(CNC(=O)Cn2nc(-c3ccc(Cl)cc3)ccc2=O)cc1
29: C=CCOC(c1ccccc1)c1nc2ccccc2n1CC=C (stereo not given)
30: Cc1nnc(NCc2ccccc2)c2ccccc12
31: Cc1ccccc1-c1nnc(C2CCN(S(=O)(=O)c3ccc(Cl)cc3)CC2)o1
32: Nc1ccccc1N1C(=O)c2ccccc2C1=O
entry no.	25	26	27	28	29	30	31	32
GIV-Gai inh	.	99	106	101	98	108	102	.
HCMV NEC inh	-28	-20	6	.	3	0	-31	-12
Sa growth 42C	108	120	.	114	107	96	100	94
Sa growth 42C second temp	89	109	.	77	83	74	84	95

33: Nn1c(SCc2ccccc2)nnc1-c1ccco1
34: CC(=O)c1cccc(NC(=O)Cn2c(=O)oc3cc(S(=O)(=O)N4CCCC4)ccc32)c1
35: CCOC(=O)c1cc(-c2ccc(Cl)cc2)oc1C(F)(F)F
36: Cc1cc(C(=O)COC(=O)C2CC(=O)N(Cc3ccccc3)C2)c(C)n1Cc1cccs1 (stereo not given)
37: COc1cc2c(-c3ccccc3C)nc3c(c(C)nn3-c3ccccc3)c2cc1OC
38: Cc1nn(CC(=O)Nc2cccc(C(F)(F)F)c2)c(=O)c2nn(-c3ccccc3)c(C)c12
39: CCOC(=O)c1ccc(NC(=O)C2COc3ccccc3O2)cc1 (stereo not given)
40: Cc1nn(C)c2sc(C(=O)NC3CCCCNC3=O)cc12 (stereo not given)
entry no.	33	34	35	36	37	38	39	40
GIV-Gai inh	99	110	103	.	107	106	104	100
HCMV NEC inh	-6	16	-7	1	-39	.	7	-7
Sa growth 42C	97	91	94	105	96	89	.	96
Sa growth 42C second temp	94	81	99	89	82	86	.	94

41: CC1=C(C#N)C(c2ccccc2N2CCOCC2)C2=C(CCCC2=O)N1 (stereo not given)
42: Cc1ccc(S(=O)(=O)N2CC=C(c3c(C)n(C)c4ccccc34)CC2)cc1
43: O=c1cnnc(Nc2ccccc2)[nH]1
44: N=S(N)c1c(O)c2ccccc2oc1=O (stereo not given)
45: CCCC1c2ccc(C)n2CCN1C(=O)NCc1ccccc1 (stereo not given)
46: O=C1c2ccc(F)cc2C(=O)N1C1CC1
47: CNCC(O)Cn1c(C(F)(F)F)nc2ccccc21 (stereo not given)
48: Cc1ccccc1OCc1nnc(SCC(=O)Nc2ccnn2C2CCCC2)n1-c1ccccc1
entry no.	41	42	43	44	45	46	47	48
GIV-Gai inh	95	100	96	101	115	103	.	.
HCMV NEC inh	-13	-47	.	3	.	-23	9	-18
Sa growth 42C	118	.	104	94	99	99	102	109
Sa growth 42C second temp	82	.	90	85	86	84	100	82

49: CCOC(=O)C1=C(C)N=c2s/c(=C\c3cc(Br)cc(OC)c3O)c(=O)n2C1c1cccs1 (stereo not given)
50: Cc1cc2c3c(c1)c(-c1ccccc1)c(C)n3CCC2
51: COc1ccc(Nc2cc(C(=O)NCCc3ccccc3)c3ccccc3n2)cc1
52: Oc1ccc(C2Nc3ccc4ccccc4c3C3C=CCC32)cc1 (stereo not given)
53: CC1(C)C/C(=N/NC(N)=S)c2ccoc2C1
54: Cc1ccc(C)c(N2CCN(C(=O)Nc3cn(CC(C)C)c(=O)c4ccccc34)CC2)c1
55: CC(C)NC(=O)N(Cc1cccnc1)Cc1cccs1
56: Cc1ccc(N2CC(=O)N(/N=C/c3ccc4c(c3)OCO4)CC2=O)cc1
entry no.	49	50	51	52	53	54	55	56
GIV-Gai inh	105	99	101	102	103	106	103	103
HCMV NEC inh	-18	.	.	-15	6	.	-33	-17
Sa growth 42C	.	113	105	.	90	116	92	91
Sa growth 42C second temp	.	90	91	.	90	95	81	85

Some of the entries above in a different format:
nr | SMILES | GIV-Gai inh | HCMV NEC inh | Sa growth 42C | Sa growth 42C second temp
50 | Cc1cc2c3c(c1)c(-c1ccccc1)c(C)n3CCC2 | 99 | . | 113 | 90
51 | COc1ccc(Nc2cc(C(=O)NCCc3ccccc3)c3ccccc3n2)cc1 | 101 | . | 105 | 91
52 | Oc1ccc(C2Nc3ccc4ccccc4c3C3C=CCC32)cc1 (stereo not given) | 102 | -15 | . | .

More structures:
57: c1ccc2c(c1)nc(NC1CCCC1)c1nncn12
58: CCCS(=O)(=O)N1CCCc2ccc(NC(=O)CN3C(=O)c4ccccc4C3=O)cc21
59: Cc1cc(C)cc(-n2ccn(CC(=O)c3ccc(F)cc3)c(=O)c2=O)c1
60: CC(=O)Nc1scc(C)[n+]1C
61: O=C(CCN1C(=O)c2ccccc2C1=O)Nc1nncs1
62: Cc1ccc(-c2nnc3n(Cc4ccc(F)cc4)c(=O)c4ccccc4n23)s1
63: Cc1ccc(C(=O)Nc2ccc3c(c2)CC(=O)N3C)cc1C
64: CCc1ccc(OCC(=O)c2c(O)c3ccccc3oc2=O)cc1
entry no.	57	58	59	60	61	62	63	64
GIV-Gai inh	99	112	104	.	102	104	104	98
HCMV NEC inh	.	-12	-13	-3	-26	-11	-31	-32
Sa growth 42C	100	.	103	95	119	109	.	4.4*
Sa growth 42C second temp	89	.	84	86	104	80	.	12*

65: COC(=O)c1cc(OC)c(OC)cc1NC(=O)c1ccc(-c2ccccc2F)o1
66: Cc1cnc(C(=O)NC(c2ccccc2)c2ccccc2)cn1
67: Cc1ccc(S(=O)(=O)N(CCC#N)C2CCCCC2)c2nsnc12
68: COC(=O)C(Cc1c[nH]c2ccccc12)NC1OC(=O)c2c1ccc(OC)c2OC (stereo not given)
69: O=S(=O)(Nc1nc2ccccc2nc1NCCc1ccccc1)c1ccc(Cl)cc1
70: CC(C)c1ccccc1NC(=O)COC(=O)Cn1nnc(-c2ccccc2)n1
71: Cc1nc2ncccc2c(=O)n1-c1cccc(NC(=O)CCC2CCCCC2)c1
72: CCN(CC)C(=O)c1cccc(-c2nnc(-c3ccccc3)o2)c1
entry no.	65	66	67	68	69	70	71	72
GIV-Gai inh	110	.	104	101	100	.	98	99
HCMV NEC inh	6	-29	-16	-4	.	-21	4	-10
Sa growth 42C	106	87	.	97	93	104	.	95
Sa growth 42C second temp	86	86	.	65	75	91	.	104

73: O=C(Cc1ccc(F)cc1)NC1CC(=O)N(c2ccccc2)C1 (stereo not given)
74: CCc1nc2cccnc2n1-c1ccc(CC(=O)Nc2c(C)cccc2C)cc1
75: COc1ccc(S(=O)(=O)N2CCN(c3cc(N4CCCCC4)nc(C)n3)CC2)c(C)c1C
76: CCCCn1c(SCC(=O)Nc2ccc(OC)cc2)nc2ccc(N3CCOCC3)cc2c1=O
77: COc1ccc(CNC(=O)CC2N=C3c4ccccc4N=C(SCC(=O)Nc4ccc(C(C)C)cc4)N3C2=O)cc1 (stereo not given)
78: Cc1ccc(-n2ncc(C(=O)N3CCOCC3)c2C2CCN(C(=O)OC(C)(C)C)CC2)cc1Cl
79: CSc1c(CC(=O)Nc2ccc(C)cc2)[nH]c2ccccc12
80: Cc1c(NC(=O)CC2SC(=O)NC2=O)c(=O)n(-c2ccccc2)n1C (stereo not given)
entry no.	73	74	75	76	77	78	79	80
GIV-Gai inh	97	107	102	103	101	101	.	104
HCMV NEC inh	.	.	-29	.	.	5	1	-1
Sa growth 42C	98	106	.	79	107	82	83	.
Sa growth 42C second temp	87	97	.	37	91	86	108	.

81: O=C(O)C1(c2ccccc2)CCCN1 (stereo not given)
82: Cc1nnc(Sc2cc(C(=O)NC3CC3)c3ccccc3n2)s1
83: CCN(CC)S(=O)(=O)c1ccc2c(c1)nc(CC(=O)O)n2C
84: Cc1ccc(CCNC(=O)C2CCN(c3nnc(-n4cccc4CNc4ccc(C)cc4)s3)CC2)cc1
85: Cc1ccc(C2CC(=O)Nc3cc4c(cc32)OCCO4)cc1Br (stereo not given)
86: CC(C(=O)NCCN(C)C)N1C(=O)CCCc2ccccc21 (stereo not given)
87: COc1cc(C(=O)NCCC(=O)N2CCN(C)CC2)cc(OC)c1OC
88: CC(=O)Nc1ccc(-c2nc3ccccc3c(=O)[nH]2)cc1
entry no.	81	82	83	84	85	86	87	88
GIV-Gai inh	98	108	.	103	104	107	108	107
HCMV NEC inh	-1	.	-28	15	-1	-6	.	40
Sa growth 42C	100	130	94	81	99	.	110	89
Sa growth 42C second temp	95	86	96	89	97	.	91	88

89: Cc1ccc(C)c(Oc2c(C(F)(F)F)oc3c(CN4CCN(C)CC4)c(O)ccc3c2=O)c1
90: CN(C)CCNc1nc2c(c(=O)[nH]c(=O)n2C)n1CC(O)COc1ccc([N+](=O)[O-])cc1 (stereo not given)
91: O=C(Nc1ccc(F)c(Cl)c1)Nc1c[nH]c(=O)[nH]c1=O
92: COc1ccc(/C=C2/Sc3ccc(C(=O)N(C)C4CCCCC4)cc3NC2=O)cc1
93: Cc1cc(C)nc(NN2C(=O)/C(=C/c3ccc(N(C)C)cc3)SC2=S)n1
94: Cc1ccc2c(c1)-c1onc(C(=O)N3CCC(Cc4ccccc4)CC3)c1CO2
95: CC(OC(=O)c1ccc(Cl)c(N)c1)C(=O)Nc1ccc(C(N)=O)cc1 (stereo not given)
entry no.	89	90	91	92	93	94	95
GIV-Gai inh	97&105	104	106	108	182	113	.
HCMV NEC inh	-32	-45	.	.	-18	-17	-23
Sa growth 42C	95&93	.	87	112	.	.	77
Sa growth 42C second temp	94&87	.	71	84	.	.	85
